Compound activity (PubChem BioAssay)
eIF4H FP inh: human eIF4H binding inhibitors, primary screen, translation initiation inhibitor project, biochemical, uHTS, fluorescence polarization; AID 2012, 2009; inhibition, % at 35 µM; 290,000 compounds, 0.94% hits; eIF4H fluorescence polarization binding assay;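 active means 50% or more with normal probe brightness, or confirmed in later tests; inconclusive means above 50% with abnormal brightness, or retests that disagree; inactive means below 50% or failed in later tests; about a fifth of its hits are not listed in these tables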;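 further: calls also rest on retests at 20 µM and on dose response follow-up; 0% = protein and probe with vehicle and 100% = probe without protein; strong numbers were not always called active; many hits fall short of the cut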
CSC inhib: cancer stem cell viability inhibitors, primary screen, luminescence; cancer stem cell-like cells viability; inhibition, % at 7.5 µM; AID 2717, 2010; 300,000 compounds, 1.1% hits;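 active means mean at 75% or more and at least half the replicates too; inconclusive means mean and replicates disagree; tested in HMLE shEcad cells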;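 further: 0% = median of negative and 100% = median of positive control wells; the first replicate is given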
HIV Env fusion: inhibitors of HIV-1 Env-driven cell-cell fusion, primary screen, HeLa-JRFL effector, CEM21 target cells, luciferase | inhibition, % at 12.3 µM | 360,000 compounds, 1.1% hits | AID 651610, 2012;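 active means mean replicate inhibition score of at least 50 and every replicate individually at or above 50; inconclusive means only one of the two criteria met; inactive means mean below 50 and not all replicates reaching 50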;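 further: 0% = plate neutral controls and 100% = maraviroc near 300 nM; one replicate is shown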
MT1-MMP act inh: blockers of MT1-MMP proenzyme processing, primary screen, HT1080 RFP-PRO-GFP cells, GFP/RFP fluorescence | Matrix metalloproteinase-14 (Homo sapiens), P50281 | GFP/RFP ratio fluorescence, overnight; percent of plate control window, DMSO zero | GFP/RFP ratio change, % at 20 µM | 360,000 compounds, 0.061% hits | AID 651647, 2012;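 active means GFP/RFP ratio change of at least 30% with cell ATP level not reduced by more than half and red fluorescence within 50% of control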; further: strong numbers were not always called active
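Compound: 20 µM single dose, 1% DMSO / System: HT1080 RFP-PRO-GFP cells / Controls: DMSO and RFP-L50D-GFP cell wells / Read-out basis: GFP/RFP fluorescence ratio / Schedule: overnight compound exposure at 37 °C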
PABP FP inh: PABP poly(A) RNA binding inhibitors, primary screen, biochemical, fluorescence polarization, uHTS | inhibition, % at 35 µM | AID 2014, 2009 | 290,000 compounds, 1% hits | Polyadenylate-binding protein 1 (Homo sapiens), P11940;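 active means 50% or more with normal probe brightness, or confirmed in later tests; inconclusive means above 50% with abnormal brightness, or retests that disagree; inactive means below 50% or failed in later tests; about a fifth of its hits are not listed in these tables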;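 further: calls also rest on retests at 20 µM and on dose response follow-up; controls were probe without protein and protein plus probe with vehicle; some compounds called inactive have numbers as strong as hits; many hits fall short of the cut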
Target sequence (P11940 whole entry, looked up): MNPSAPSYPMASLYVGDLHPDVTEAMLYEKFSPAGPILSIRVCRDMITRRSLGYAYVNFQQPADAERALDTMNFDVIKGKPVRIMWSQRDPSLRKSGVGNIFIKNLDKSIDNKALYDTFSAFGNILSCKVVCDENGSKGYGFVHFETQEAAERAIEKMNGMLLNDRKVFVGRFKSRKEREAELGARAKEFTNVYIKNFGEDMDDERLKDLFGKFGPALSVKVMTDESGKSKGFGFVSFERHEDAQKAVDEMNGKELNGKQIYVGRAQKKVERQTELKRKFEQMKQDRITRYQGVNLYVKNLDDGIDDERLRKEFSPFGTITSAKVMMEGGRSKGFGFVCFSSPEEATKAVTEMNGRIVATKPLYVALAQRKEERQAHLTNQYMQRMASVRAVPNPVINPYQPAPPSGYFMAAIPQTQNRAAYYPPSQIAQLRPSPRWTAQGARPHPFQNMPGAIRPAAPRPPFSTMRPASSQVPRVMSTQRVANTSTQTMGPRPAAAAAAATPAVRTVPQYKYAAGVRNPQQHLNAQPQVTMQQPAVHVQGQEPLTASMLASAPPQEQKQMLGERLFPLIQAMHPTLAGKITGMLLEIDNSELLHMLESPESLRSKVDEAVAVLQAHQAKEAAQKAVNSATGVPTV
Rce1 inhib: yeast Rce1p protease inhibitors, primary screen, biochemical, fluorescence, cell-free homogeneous | calls only | yeast membranes, quenched prenylated peptide cleavage fluorescence | CAAX prenyl protease 2 (Saccharomyces cerevisiae (strain ATCC 204508 / S288c)), Q03530 | 290,000 compounds, 0.27% hits;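 active means fall in fluorescence gain of 50% or more versus controls, with final raw signal at or below 3038400; inconclusive means same 50% fall but final raw signal above 3038400; inactive means fall in fluorescence gain under 50%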;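 further: plate controls were neutral control wells for no effect and wells lacking membranes for full effect; tested at 10 µM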
UUG fidelity: modulators of yeast start codon fidelity, primary screen, whole organism, S. cerevisiae, single point, plate reader; S. cerevisiae UUG-firefly luciferase reporter, luminescence/redox ratio; activity score, % at 18.7 µM; AID 602363, 2012; 350,000 compounds, 0.13% hits;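 active means replicate mean at a twofold rise or more, about +100% in these data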;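 further: firefly luciferase made from a UUG start codon reports start codon fidelity; reporter light over untreated wells divided by growth signal over untreated wells; some hits fall short of that in this replicate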
eIF4H FP inh retest: second read-out of eIF4H FP inh, no call of its own (marks repeat the call); inhibition, %; compound at 20 µM; confirmation average;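 mean of two retest wells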
PABP FP inh retest: second read-out of PABP FP inh, no call of its own (marks repeat the call); inhibition, %; compound at 20 µM; confirmation repeats;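 mean of two retest wells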
MT1-MMP act inh RFP: recorded beside MT1-MMP act inh, whose call it bears; RFP signal change, %; measured here: RFP expression control read;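 0 = vehicle wells; hits needed this value within 50% of zero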
Active calls of the source: *; i = inactive; ? = inconclusive; . = no result given; & = joins results of further samples. The order is random. About 2.9% of those tested had a hit in this group.

SMILES	eIF4H FP inh	CSC inhib	HIV Env fusion	MT1-MMP act inh	MT1-MMP act inh RFP	PABP FP inh	Rce1 inhib	UUG fidelity	others
O=C(Cn1cc2c(n1)CCCCC2)NCc1ccccc1	-7.1	14.4	-4.5	3.0	3.6	-11.0	i	-19.2
COc1ccccc1N1CC(C(=O)OCC(=O)c2c(N)n(C)c(=O)n(C)c2=O)CC1=O (configuration not stated)	.	.	-38.2	-2.9	-4.2	.	.	-10.8
CC(=O)/C(N=Nc1c(C)n(C)n(-c2ccccc2)c1=O)=C(\C)O	2.2	-8.5	-1.2	1.4	2.7	-5.7	i	.
Cc1ccccc1C(=O)N1CCN(CCNC(=O)C(=O)Nc2ccc(Br)cc2)CC1	4.0	15.9	27.7	-3.4	-11.4	7.7	i	14.2
Cc1nc2ccccc2n(CC(=O)Nc2cc(Cl)cc(Cl)c2)c1=O	-13.1	-12.9	33.5	-7.0	-7.5	3.7	i	.
CC1(C)c2cc(Cl)ccc2-n2c1cc(O)c(-c1ccccc1)c2=O	-5.2	-3.5	10.8	-4.1	-3.8	-1.7	i	-6.8
COC(=O)c1ccc(C(=O)NC2CCSc3ccccc32)cc1 (configuration not stated)	0.0	-9.4	21.4	-1.3	0.3	5.2	i	-14.0
COc1ccc(CCNC(=O)CCC(=O)N2CCOc3ccc(Cl)cc32)cc1OC	-10.3	-3.4	-14.2	7.1	8.1	-11.6	i	8.0
CCC(C)NC(=O)C1=CCN(S(=O)(=O)c2ccc(C)cc2)CC1 (configuration not stated)	-7.5	-11.6	-12.5	2.6	0.1	-2.1	i	-0.6
OCCCCNc1cccc2ccccc12	-6.3	8.9	.	-10.9	9.9	20.6	?	-8.7
CCCn1c(N)c(N(CCOC)C(=O)c2cccc(Cl)c2)c(=O)[nH]c1=O	-4.2	-20.2	0.7	-0.9	0.8	3.5	i	7.3
Cc1cc(C)nc(Nc2n[nH]c(-c3ccc(C(C)(C)C)cc3)n2)n1	10.9	-5.7	-6.7	2.5	-13.9	2.2	i	4.1
COc1ccc(N(CC(=O)N/N=C/c2cccnc2)S(=O)(=O)c2ccc(C)cc2)cc1OC	-0.7	-7.3	15.4	-4.7	0.5	2.1	i	-17.3
Cc1cc2c(C)nc(-c3ccccc3)nc2o1	7.6	9.7	-91.5	0.1	2.2	10.9	i	-14.2
Cc1ccc(-c2cn(CCN)c(-c3ccncc3)n2)cc1	.	-4.8	12.2	-0.4	3.3	.	.	18.7
Cc1ccc(CN2CCSCC2)cc1	16.5	2.1	-5.8	7.3	3.0	18.7	i	-2.6
NNC(=O)Cn1c(SCc2ccccc2)nc2ccccc21	-3.4	0.4	.	2.3	6.5	5.2	i	.
Cc1noc(/C=C/c2ccco2)c1S(=O)(=O)N1CCC(C(=O)NCc2ccco2)CC1	3.6	-10.9	-106.3	-11.2	2.1	6.4	i	-9.7
CC(=O)NCCC(=O)Nc1ccc(C(N)=O)cc1	1.1	.	-3.4	1.9	3.1	-1.5	i	.
COc1ccc(Nc2ccc([N+](=O)[O-])cc2[N+](=O)[O-])cc1	-5.1	8.7	0.4	-0.7	1.0	0.8	i	-5.0
COc1ccc(NC(=O)CSc2nnc(Cc3ccc(C)cc3)c(=O)n2N)cc1OC	.	-8.7	0.3	-0.7	-0.4	.	i	-5.9
CCOC(=O)Cn1c(=O)c2c(nc3n2CCCCN3c2ccc(C)cc2)n(C)c1=O	-7.3	-14.7	31.7	2.9	1.3	-3.5	.	-6.4
CC(=O)Nc1ccc([C@H]2[C@H](C)CC[C@H]3C(=O)N4[C@@H](CC[C@@H](C)[C@@H]4c4ccc(NC(C)=O)cc4)C(=O)N32)cc1	-6.9	-4.1	.	.	.	70.8	i	.	eIF4H FP inh retest=-1.5;PABP FP inh retest=-2.8
CCCCn1c(CCNC(=O)CC)nc2ccccc21	-1.6	-2.8	17.0	-2.8	3.8	8.4	i	-18.2
S=C(NC1CCCCC1)N1CCN(C/C=C/c2ccccc2)CC1	3.9	-8.8	-0.8	-1.1	-7.9	-1.2	i	.
COC(=O)CCc1c(C)c(C#N)c2nc3ccccc3n2c1N1CCCC1	-5.3	-4.2	13.5	-6.0	-5.6	9.3	i	-4.3
COc1ccc(C)cc1S(=O)(=O)Nc1cccc(-c2cn3cccnc3n2)c1	-12.1	-18.9	3.0	1.5	0.9	6.3	.	13.5
CC1CCCC(NC(=O)CSc2n[nH]c(=O)n2Cc2ccccc2)C1C (configuration not stated)	.	9.9	4.1	-2.3	-0.3	.	.	-21.5
COc1ccc(N2CCN(C(=O)CCNS(=O)(=O)c3cccs3)CC2)cc1	0.6	26.1	.	-1.9	1.1	-6.2	i	-14.4
C[C@H]1CC[C@@]2(O[C@@H](CCO)C[C@H](O)[C@H]2O)O1	.	-12.1	-15.4	4.8	3.9	.	i	-10.6
NS(=O)(=O)c1ccc(CCNc2ncnc3c2c(-c2ccccc2)cn3-c2ccc(F)cc2)cc1	-2.5	69.0	.	-9.1	-10.8	-10.9	i	0.6
O=C(NC(=S)Nc1ccc(CN2CCCCC2)cc1)c1cc2ccccc2o1	-6.4	10.1	-6.9	4.3	2.2	-3.4	i	-20.4
CC(Sc1nnnn1C1CCCC1)C(=O)Nc1cccc(S(=O)(=O)N2CCOCC2)c1 (configuration not stated)	.	-9.3	8.8	1.4	-5.3	.	.	-5.3
Cc1nnc2sc(-c3cccc(F)c3)nn2c1=O	6.2	-18.6	5.2	4.3	3.9	-2.2	i	-0.2
CCCCCC(=O)N1CC2(CC(c3cccc(NC(=O)CC(c4ccccc4)c4ccccc4)c3)=NO2)C[C@@H]1C(N)=O (some centres not stated)	-2.3	72.7	16.4	0.1	-8.7	-1.8	i	-6.7
O=C(Nc1ccccc1N1CCOCC1)c1cccc2c(Br)cccc12	-6.6	-0.3	31.1	-8.7	-7.1	5.1	i	-14.7
COc1ccc(C(=S)Nc2ccc(N(C)C)cc2)cc1	0.1	5.5	-180.5	6.9	0.8	2.5	i	-28.4
COc1ccc(C(=S)N2CCN(c3cccc(Cl)c3)CC2)cc1	-7.9&2.1	11.4	2.8	-0.6	0.7	-1.1&1.2	i	-22.4
O=C(O)C1CC1C(=O)Nc1nc2c(Cl)cccc2s1 (configuration not stated)	7.1	-0.1	-9.9	3.4	2.3	9.3	i	.
CCn1c(C)c(C)c2cc(C(=O)NCCCN3CCCCC3C)ccc21 (configuration not stated)	4.1	-6.9	-4.7	5.9	7.4	-1.1	i	-2.0

Pulled one by one from above, 5 records:
SMILES	eIF4H FP inh	CSC inhib	HIV Env fusion	MT1-MMP act inh	MT1-MMP act inh RFP	PABP FP inh	Rce1 inhib	UUG fidelity	others
Cc1noc(/C=C/c2ccco2)c1S(=O)(=O)N1CCC(C(=O)NCc2ccco2)CC1	3.6	-10.9	-106.3	-11.2	2.1	6.4	i	-9.7
COC(=O)CCc1c(C)c(C#N)c2nc3ccccc3n2c1N1CCCC1	-5.3	-4.2	13.5	-6.0	-5.6	9.3	i	-4.3
CC1CCCC(NC(=O)CSc2n[nH]c(=O)n2Cc2ccccc2)C1C (configuration not stated)	.	9.9	4.1	-2.3	-0.3	.	.	-21.5
COc1ccccc1N1CC(C(=O)OCC(=O)c2c(N)n(C)c(=O)n(C)c2=O)CC1=O (configuration not stated)	.	.	-38.2	-2.9	-4.2	.	.	-10.8
C[C@H]1CC[C@@]2(O[C@@H](CCO)C[C@H](O)[C@H]2O)O1	.	-12.1	-15.4	4.8	3.9	.	i	-10.6

The results go on:
SMILES	eIF4H FP inh	CSC inhib	HIV Env fusion	MT1-MMP act inh	MT1-MMP act inh RFP	PABP FP inh	Rce1 inhib	UUG fidelity	others
Cc1ccc(NS(=O)(=O)c2cc(C(=O)Nc3cccnc3)ccc2C)cc1	-7.4	-5.0	4.4	0.6	-0.4	12.5	i	0.2
Cc1c(C(=O)C(=O)N2CCCc3ccccc32)c2ccccc2n1C	-10.9	23.4	-9.0	2.7	1.8	12.8	i	.
COc1ccccc1-c1cc(C(=O)NCCc2ccccc2)no1	-0.8	32.7	-160.4	2.4	0.1	5.6	i	-14.3
C=CCNC(=S)NC(CC(=O)OC)c1ccc2c(c1)OCO2 (configuration not stated)	-7.4	2.4	-1.2	5.1	-1.1	10.3	i	.
CCOC(=O)C1=C(N)N2C(=O)C(C)SC2=C(C(=O)OC)C1c1ccccc1OC (configuration not stated)	-3.0	-9.2	.	4.3	4.2	3.4	.	-8.8
COc1ccc(NC(=O)c2ccc3c(c2)CCN3S(=O)(=O)c2ccccc2)c(OC)c1	8.7	2.6	-17.1	1.9	-2.3	3.2	i	-9.6
COc1ccc2oc(C)c(C(N)=O)c2c1	-2.2	-15.3	-12.4	10.8	6.1	-6.7	i	-1.6
COCCOC(=O)/C(C#N)=C/c1cn(Cc2ccccc2)nc1-c1cccnc1	-10.5	3.6	-1.2	1.3	0.8	11.1	i	-12.4
Cc1cc(NC(=O)CSCC(=O)Nc2nc3ccccc3[nH]2)no1	.	-1.7	11.9	-3.8	5.8	.	.	-12.9
O=C(NC(=S)Nc1cccnc1)c1cccc(Br)c1	7.9	0.1	-15.7	-0.8	-0.8	0.5	i	-13.4
O=C(O)C1CCCCC1C(=O)Nc1ccc2c(c1)OCCO2 (configuration not stated)	0.0	10.4	.	6.6	9.1	3.2	i	-17.7
CCOC(=O)C1(Cc2ccc(OC)cc2)CCN(C(=O)CN2CCCCC2=O)CC1	-5.2	-0.1	-10.6	0.0	-2.2	-7.3	i	.
CCOC(=O)C1=C(CN2CCN(c3ccc(F)cc3)CC2)NC(=O)NC1c1cccs1 (configuration not stated)	-1.6	-9.7	-57.2	-1.5	-7.0	1.3	i	4.9
COC(=O)c1ccc(-c2nc(CN3CCN(Cc4cccc(C)c4)CC3)c(C)o2)cc1	10.7	-4.9	-10.3	1.4	0.4	2.6	i	-3.1
CCC1Oc2ccc(C)cc2N(CC(=O)NCCCN2CCCC2)C1=O (configuration not stated)	-5.6	-9.3	5.0	-2.3	-1.2	0.9	i	-4.2
CCOC(=O)C1(CC)NC(c2ccc(OC)cc2OC)C2C(=O)N(C)C(=O)C21 (configuration not stated)	5.0	-3.5	10.5	4.4	2.5	-4.3	i	-1.5
Cc1cc(C)c(C)c(S(=O)(=O)N2CCN(c3ncnc4ccccc34)CC2)c1C	.	34.4	.	-4.6	-31.2	.	.	-6.4
C=CCn1c(SCc2ccc(C(=O)NCCO)cc2)nc2ccccc2c1=O	6.9	1.4	-35.2	-9.1	-3.3	3.3	.	-22.9
CCCN1C(=O)/C(=C/c2ccc(C)o2)SC1=Nc1ccc(OC)cc1	2.1	-1.3	.	-1.1	-2.0	5.3	i	-19.1
CO/N=C/c1c(-c2ccc(Cl)cc2)nc2cc(C)ccn12	-14.6	-8.8	9.6	-0.2	-4.4	?	i	.
Cc1cccc(-n2c(SCC(=O)N3CCC(C(=O)O)CC3)nc3ccccc3c2=O)c1C	-8.0	-17.7	4.5	-0.1	-0.2	5.3	i	.
